# PINK1 modulator – PINK1 expression modulation | AID 624263 | PINK1 immunofluorescence, high-content cytometry, 24 h | Potency, µM (top dose mostly 76.6 µM), without a hit: at the highest dose activation (PINK1 increase), actives largely listed as activators | 0.2% of 410,000 active; active = well fitted activation curve with a large enough effect; inconclusive = small, poorly fitted or top-dose-only effect; inactive = flat fitted curve, though single readings scatter; cell line not stated here;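 further: potency means the concentration at half of the fitted maximal effect; % of control where 0% means no effect; nearly all actives have a fitted effect of over 65% in size; a mitochondrial uncoupler was the plate control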
#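 Readout is PINK1 immunofluorescence, quantified alongside mitochondrial, cell and nuclear markers by laser-scanning microplate cytometry. Cells from a stable line were exposed to compound titrations (5 concentrations) for 24 hours, with CCCP controls.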
# TRPML1 ag – activates the human TRPML1 channel | TRPML1-expressing cells, Ca2+ dye fluorescence, FDSS; host cell line not named in the record; reference of the full effect not given here | Q9GZU1 | activation, % (test concentration not listed) | 0.12% of 410,000 active | AID 624414; in the data active = activation above about 50%; inconclusive = about 30% to 50%; inactive = below about 30%; further: 0% is about no effect; the text of the record puts the active cut at 80%
# Target sequence (Q9GZU1 whole entry, looked up): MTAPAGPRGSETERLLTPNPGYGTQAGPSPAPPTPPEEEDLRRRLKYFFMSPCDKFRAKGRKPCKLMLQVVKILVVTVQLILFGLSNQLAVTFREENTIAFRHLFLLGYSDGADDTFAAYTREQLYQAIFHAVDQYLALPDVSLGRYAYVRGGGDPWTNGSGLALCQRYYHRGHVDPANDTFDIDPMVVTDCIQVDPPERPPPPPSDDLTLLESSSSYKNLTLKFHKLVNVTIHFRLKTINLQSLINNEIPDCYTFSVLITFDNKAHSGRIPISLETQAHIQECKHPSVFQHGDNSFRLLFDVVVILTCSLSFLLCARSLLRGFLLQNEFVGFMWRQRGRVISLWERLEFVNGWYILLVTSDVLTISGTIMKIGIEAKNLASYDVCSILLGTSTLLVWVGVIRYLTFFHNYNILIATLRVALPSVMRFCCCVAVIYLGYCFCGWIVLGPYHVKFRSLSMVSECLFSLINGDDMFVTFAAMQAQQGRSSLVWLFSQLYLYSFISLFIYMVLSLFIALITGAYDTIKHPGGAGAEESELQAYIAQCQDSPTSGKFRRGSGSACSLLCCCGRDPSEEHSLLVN
#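 Kinetic FDSS Ca2+ read in Tet-induced TRPML1-DL cells (ABD Ca8 dye plus quencher, 45-90 min RT loading): baseline, then compound, then 110 s agonist window; EC80 agonist 54-4 at 4uM final added afterwards for a 110 s antagonist window.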
# D2 agonist – activates the human D2 dopamine receptor. P14416. DiscoveRx PathHunter D2 beta-arrestin, luminescence, 90 min; 100% = 57 uM dopamine signal. activation, % (no concentration beside the values). 0.084% of 360,000 active; in the data active = activation above about 40%; inconclusive = about 15% to 40%; inactive = below about 15%; further: compound concentration not given in the record; the text of the record calls up to 30% inactive
# Target sequence (P14416 whole entry, looked up): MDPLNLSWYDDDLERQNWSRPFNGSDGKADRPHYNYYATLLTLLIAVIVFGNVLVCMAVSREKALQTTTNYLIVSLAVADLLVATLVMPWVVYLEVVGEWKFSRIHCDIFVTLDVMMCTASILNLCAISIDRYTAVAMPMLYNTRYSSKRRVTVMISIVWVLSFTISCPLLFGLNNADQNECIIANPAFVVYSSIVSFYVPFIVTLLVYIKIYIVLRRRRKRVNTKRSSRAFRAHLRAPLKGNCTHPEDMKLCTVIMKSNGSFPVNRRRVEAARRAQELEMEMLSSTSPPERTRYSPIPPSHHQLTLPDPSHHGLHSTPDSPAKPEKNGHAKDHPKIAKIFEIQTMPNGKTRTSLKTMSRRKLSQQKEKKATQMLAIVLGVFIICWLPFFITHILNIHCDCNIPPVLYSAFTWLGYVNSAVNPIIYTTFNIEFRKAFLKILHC
#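 DiscoveRx PathHunter D2 beta-arrestin cells (2,100/well) attached overnight, then compound-stimulated 90 min at 37 C in HBSS/10 mM HEPES/0.1% Tween-20 buffer; beta-galactosidase complementation read by luminescence after 1 h at ambient temperature. Dopamine 57 uM final (EC100) as control.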
# D2 PAM – human D2 receptor positive allosteric modulation | potentiation, % (no concentration beside the values) | 0.23% of 360,000 active | DiscoveRx D2 beta-arrestin cells, luminescence, 90 min; 100% = 57 uM dopamine signal | P14416; active = potentiation of 50% or more; inconclusive = 30% to 50%; inactive = 30% or less;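 further: compound concentration not given in the record; tested on top of an EC20 dose of dopamine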
#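 D2 cells co-treated with compound plus 50 nM dopamine (EC20) for 90 min at 37 deg C to detect potentiation. Beta-arrestin recruitment was read as enzyme-fragment luminescence after 1 h at ambient temperature. Full response was set by 57 uM dopamine.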
# CtBP-E1A inh – blocks the CtBP interaction with E1A. activity change, % (no concentration beside the values). AID 651724. 0.49% of 340,000 active. AlphaScreen GST-E1A/His-CtBP binding, 1536-well; active compounds read low; control for the full effect not named in the record; in the data active means activity change below about -65%; inconclusive means about -30% to -65%; inactive means above about -30%; further: on the % scale 0 is the no-effect control and ±100 the full control effect
#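 Homogeneous bead-based format: GST-tagged E1A captured on glutathione donor beads, His-tagged CtBP on nickel acceptor beads; compounds precede bead addition by 2 h at 37 °C.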
# Six1-Eya2 inh – Six1/Eya2 interaction inhibition; activity change, % (no concentration beside the values); Q15475+O00167; 0.56% of 360,000 active; AlphaScreen GST-Six1/His-Eya2 binding, biochemical; active compounds read low; control for the full effect not named in the record; AID 651725; in the data active = activity change below about -65%; inconclusive = about -30% to -65%; inactive = above about -30%; further: on the % scale 0 is the no-effect control and ±100 the full control effect
#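 AlphaScreen with GST-Six1 and His-Eya2 (5X mix: 250 nM and 500 nM), glutathione donor and nickel acceptor beads; buffer 50 mM Tris pH 8.0, 300 mM NaCl, 1 mM TCEP; 1 h at 37 C in the dark.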
# Numbers without * were called inactive; ? = inconclusive; . = no result given; & = joins results of further samples; [ ] = another dose, or the depositor's remark.
SMILES,PINK1 modulator,TRPML1 ag,D2 agonist,D2 PAM,CtBP-E1A inh,Six1-Eya2 inh
CN1C(=O)C2(C(C#N)=C(N)N(c3cc(Cl)cc(Cl)c3)C3=C2C(=O)CCC3)c2ccccc21 (stereo not given),1.6%,0.2,-0.1,13,2,-4
CCCCn1c(N)c(N(CCOC)C(=O)COC(=O)C(C)(C)Oc2ccc(Cl)cc2)c(=O)[nH]c1=O,2.2%,-0.6,-5.8,-11,-1,-1
Cc1nn(-c2ccccc2)c(Cl)c1/C=N/NC(=O)OC(C)(C)C,0.1%,-0.9,-4.6,-8,-2,-4
CC(=O)Oc1c(Br)cc(N(C(C)=O)S(=O)(=O)c2ccccc2)c2ccccc12,-0.1%,0.0,?,-1,-17,2
Cc1ccc(NC(=O)Cn2cnc3c(cnn3C(C)(C)C)c2=O)cc1,1.3%,-0.6,-3.7,-2,4,4
Cc1ccc(NC(=O)CN(C)C(=O)c2ccc(OCc3cn4ccccc4n3)cc2)cc1,-2.3%,0.2,-2.5,0,-1,-3
Cc1cc(N2C(=O)c3ccc(C(=O)Nc4ccc(CC(=O)O)cc4)cc3C2=O)no1,-0.5%,0.6,-6.9,-13,15,-11
COc1ccc(CNC(=O)CSc2nc3c(oc4ccccc43)c(=O)n2CC2CCCO2)cc1 (stereo not given),4.0%,-0.8,-4.6,-15,16,4
CN(CCO)C(=O)c1c(NC(=O)c2ccccc2)sc2c1CCCC2,1.0%,-0.4,-2.5,-2,-1,-7
N#CCCN(C(=O)COC(=O)CCc1c[nH]c2ccccc12)c1ccc(F)cc1,-1.6%,0.6,-8.7,-12,12,-13
COc1ccc(C2=NN(C(=O)CN3CCCCC3)C(c3ccc(OC)cc3)C2)cc1 (stereo not given),-3.9%,3.8,-2.7,-4,-1,-15
CCn1nnnc1NCc1c(OC)ccc2ccccc12,1.6%,0.4,-1.6,-3,4,5
COc1ccc(OC)c(NS(=O)(=O)c2ccc3[nH]c(=O)[nH]c3c2)c1,15%,-0.4,-6.0,-7,-9,-11
O=C(CNS(=O)(=O)c1ccccc1)N/N=C/c1ccccc1[N+](=O)[O-],0.4%,2.1,0.0,4,-1,3
CCCCC1=CC2=CC(=O)C(C)(OC(=O)c3cccs3)C(=O)C2=CO1 (stereo not given),2.3%,0.6,1.3,7,4,-11
COCCCNC(=O)c1nc2c(nnn2Cc2cc(C)ccc2C)c(=O)[nH]1,1.6%[38.3 µM],0.2,-2.5,3,13,3
Oc1ccc(N2CCN(c3ccnc4cc(Cl)ccc34)CC2)cc1,2.3%,-0.5,12,3,-8,-19
O=C(CSc1ncnc2ccccc12)c1ccco1,1.1%,-1.0,-5.1,-12,-2,-14
CCN(CC(=O)Nc1c(F)cccc1F)C(=O)CCc1nc2sc3c(c2c(=O)[nH]1)CCCC3,1.4%,-0.5,-5.5,-23,-4,-17
Cc1nnc(SCC(=O)NC2CCCC2)s1,-1.4%,0.7,-3.7,-5,7,13
CS(=O)(=O)N1CCCC(C(=O)Nc2ccccc2)C1 (stereo not given),0.4%,0.5,-2.0,2,36,16
Cc1cccc(N2CCCn3c2nc2c3c(=O)[nH]c(=O)n2C)c1,0.4%,.,-7.4,-8,-4,-4
CCOc1ccc(/C=N/Nc2cc(N3CCOCC3)ncn2)c(O)c1,0.9%,-1.1,-13,-27,?,-71*
Cc1cccc(CNC(=O)C2CCC(=O)N(C3CCCCCC3)C2)c1 (stereo not given),1.6%,-0.4,1.8,2,1,3
CN(C)c1cc(NC(=O)CN2CCCC2)c2ccccc2n1,0.3%,0.8,-3.0,-9,9,11
CCc1nc2ccc(C(=O)NCCOc3ccc(OC)cc3)cn2c1N(C)Cc1ccc(OC)cc1,1.5%,-1.0,-3.3,-3,-19,-14
COc1cccc(NC(=O)CNC(=O)c2ccc(C)o2)c1,-0.9%,-0.1,-3.4,-2,0,2
CC1CCN(CC(=O)Nc2ccc(C(=O)N3CCCCC3)cc2)CC1,-1.3%,-0.2,-1.8,1,5,0
COc1ccc(NS(=O)(=O)c2ccc(NC(=S)NC(=O)/C=C/c3ccc(C)cc3)cc2)nn1,7.0%,-0.2,0.3,20,-15,1
CN(C)c1cc2c(cc1NS(=O)(=O)c1ccccc1)n(C)c(=O)n2C,-0.2%&1.2%,-0.8&-0.9,-4.8,-1,1,43
S=c1[nH]ccn1-c1c(Cl)cccc1Cl,0.4%,0.0,-1.4,-3,-3,-4
N#CCCCSC1=C(C#N)C(c2ccccc2Cl)CC(=O)N1 (stereo not given),0.4%,-0.2,1.0,-4,3,5
COc1ccc(Nc2ccnc(Nc3ccc(OC)cc3)n2)cc1,-3.9%,-1.1,4.0,-5,8,-22
O=C(c1ccco1)N1CCN(Cc2nnc(-c3ccccc3F)o2)CC1,0.3%,1.2,2.2,-2,-3,0
COCCCN1C(=O)c2ccc(C(=O)Nc3ccc(OC)cc3)cc2C1=O,-3.3%,1.7,-0.8,4,2,-1
CCN(CC)c1cc(C)c2ccccc2n1,-2.1%,2.3,-1.2,-11,4,14
Cc1ccc(S(=O)(=O)N2CCN(C(=O)CN3C(=O)c4ccccc4C3=O)CC2)c(C)c1,2.6%,-1.4,-1.0,-9,.,-3
CN1CCC(=O)N([C@H](CSc2ccc(Br)cc2)c2ccccc2)CC1,-0.8%,1.2,-6.7,-8,-7,-1
COc1ccc(/C=C2\SC(=O)N(CCNC(=O)Cc3coc4cc(C)ccc34)C2=O)cc1OC,1.6%,1.0,-2.0,9,-5,-4
Cc1ccc2nc(Cl)nc(-c3ccccc3)c2c1,-0.4%,1.5,-3.7,6,0,6
CCc1nc2c(OCc3ccc(C(=O)OC)cc3)cccn2c1N(C)C(=O)c1ccc(OC)cc1,1.1%,0.1,-2.1,-13,-8,-3
Clc1ccc(SCc2cn3ccsc3n2)cc1,-1.9%,2.2,-3.5,-23,-1,-5
O=C1NC2(CCCCC2)C(=O)N1c1ccc(Cl)cc1,-0.4%,0.4,-2.3,-1,3,1
NS(=O)(=O)c1ccc(CCNC(=O)c2cc(-c3ccco3)nc3ccccc23)cc1,0.5%,3.1,2.2,8,-13,-9
COCCNC(=O)c1cc(-c2ccccc2)nn1Cc1cc(C)no1,0.5%,1.1,-1.8,-9,.,-2
Cc1cccn2c(CN3CCNC(=O)CC3)c(C(=O)N(C)CCc3ccccc3)nc12,1.5%,-0.1,-0.2,-4,14,11
CCCCCCCCN1C(=O)[C@H](CC(=O)N2CCN(C(=O)c3ccco3)CC2)C[C@@]2(C(=O)OC)CCCCC=C12,2.4%,-0.7,.,.,-5,-5
CCN1C(=O)[C@H]2[C@H]3CN=C(SCc4ccccc4)N3[C@@](C)(C(=O)OC)[C@H]2C1=O,-1.7%,1.1,-2.6,-6,6,9
COc1cc2c(cc1NC(=O)COc1ccccc1OC)oc1ccccc12,14µM*,0.1,1.9,-7,8,3
Cc1nn(-c2ccccc2)c(Cl)c1/C=N/NC(N)=O,-1.9%,0.4,-2.1,-6,-4,-5
C=CC[C@@H](Cc1ccc(F)cc1)C(=O)OC[C@@H]1CCCN1C(=O)[C@@H](CC=C)CC(=O)N(CCO)Cc1ccccc1,2.9%,0.6,-3.2,-16,-1,-3
COC(=O)C1CCN(C2CN(Cc3ccccc3)S(=O)(=O)C2)CC1 (stereo not given),-1.1%,-0.6,-5.3,-7,6,8
Cc1ccccc1NC(=O)C1CCN(S(=O)(=O)c2ccc3c(c2)NC(=O)C(C)S3)CC1 (stereo not given),0.1%,-0.6,0.7,-9,1,0
CCn1c2ccccc2c2cc(CNCCCN3CCOCC3)ccc21,9.3%,-0.5,-1.9,-72,.,0
Cc1c(C(=O)O)oc2ccc(S(=O)(=O)N3CCC(C)CC3)cc12,-1.6%,-0.5,0.6,-4,0,18
CC(=O)Nc1ccc(C(=O)CN2C(=O)NC3(CCCc4ccccc43)C2=O)c(F)c1 (stereo not given),1.0%,-0.6,6.2,4,0,1
Cc1ccc(CC2CC(=O)N(CCc3ccccc3)C2=O)cc1 (stereo not given),2.8%,0.8,-4.0,-1,-4,16
Cc1cc(N2CCN(C)CC2)nc(-c2ccccc2O)n1,-0.7%,.,-7.6,-21,-2,-1
COc1cc2cnc(CCCC#N)cc2cc1OC,0.4%,-0.6,-1.4,-6,0,-14
Cc1cc(C)n(CCC(=O)Nc2cccc(F)c2)n1,0.3%,-0.3,-3.8,-13,-5,4

# In a second layout: entries from further up.
canonical_smiles	PINK1 modulator	TRPML1 ag	D2 agonist	D2 PAM	CtBP-E1A inh	Six1-Eya2 inh
Cc1c(C(=O)O)oc2ccc(S(=O)(=O)N3CCC(C)CC3)cc12	-1.6%	-0.5	0.6	-4	0	18
Cc1nn(-c2ccccc2)c(Cl)c1/C=N/NC(N)=O	-1.9%	0.4	-2.1	-6	-4	-5
Cc1cc(C)n(CCC(=O)Nc2cccc(F)c2)n1	0.3%	-0.3	-3.8	-13	-5	4
CCN1C(=O)[C@H]2[C@H]3CN=C(SCc4ccccc4)N3[C@@](C)(C(=O)OC)[C@H]2C1=O	-1.7%	1.1	-2.6	-6	6	9
Clc1ccc(SCc2cn3ccsc3n2)cc1	-1.9%	2.2	-3.5	-23	-1	-5

# The list continues.
SMILES,PINK1 modulator,TRPML1 ag,D2 agonist,D2 PAM,CtBP-E1A inh,Six1-Eya2 inh
Cc1ccc(C(C(=O)NC2CCCC2)N(Cc2ccco2)C(=O)CCC(=O)Nc2cc(C)on2)cc1 (stereo not given),1.7%,0.1,-2.3,-22,9,4
CCCC(=O)Nc1nc(-c2ccc(Cl)s2)cs1,7.5%,0.9,-6.6,-1,8,5
C=CCn1c(-c2c(C)nc3cc(C)ccn23)n[nH]c1=S,4.0%,-0.4,-3.6,-9,25,9
O=C(NCC(=O)N(c1ccccc1F)C(C(=O)NC1CCCC1)c1ccncc1)c1ccco1 (stereo not given),-1.1%,0.0,1.3,-4,12,10
COc1cccc(CN2CC(C(=O)NCC3CCOCC3)CCC2=O)c1 (stereo not given),0.3%,-0.4,-3.7,-8,3,0
OCCCn1c(C2CCCN2c2nc(-c3ccc(F)cc3)cs2)nc2cc(Cl)c(N3CCCCC3)cc21 (stereo not given),0.7%,0.1,-1.6,-2,-1,-10
Cc1cc(-c2nnc(SCC(=O)Nc3cccc(F)c3)n2N)n[nH]1,0.2%,-1.0,-1.5,1,1,-1
Cc1cc(C(=O)CN2C(=O)NC(CCS(C)(=O)=O)C2=O)c(C)n1C1CC1 (stereo not given),0.3%,0.2,4.2,-6,-22,-13
Cc1cc(NC(=O)c2cccc([N+](=O)[O-])c2)n(-c2ccccc2)n1,-0.3%,2.1,-3.2,-15,0,-1
COC(=O)c1cc(NC(=O)/C=C/c2ccc3c(c2)OCO3)cc(C(=O)OC)c1,12%,0.2,0.5,10,2,0
CCOc1ccccc1N(CC(=O)Nc1cccnc1)S(C)(=O)=O,2.4%,0.1,-0.1,4,9,7
COc1cccc(N(C(=O)Cn2nnc3ccccc32)C(C(=O)NCc2ccco2)c2cccnc2)c1 (stereo not given),-1.9%,-1.0,-2.7,8,-8,-26

# From PubChem BioAssay
